Rango complex inh: prevents formation of the Rango-importin beta complex; Rango CFP/YFP FRET sensor + importin beta, 45 min; Q14974; hit rate 0.031% among 340,000; AID 540263; Potency, µM (doses to about 92.2 µM), without a hit: top-dose inhibition of complex formation; active = rising FRET ratio curve, often small or poorly fitted; inconclusive = mostly compound fluorescence or quenching in the first reads; inactive = flat curves in all reads;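 note: potency is the fitted concentration of half-maximal effect; 0% = DMSO wells and 100% = buffer wells lacking importin beta; nearly all actives have a fitted effect of over 15% in size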
Target sequence (Q14974 whole entry, looked up): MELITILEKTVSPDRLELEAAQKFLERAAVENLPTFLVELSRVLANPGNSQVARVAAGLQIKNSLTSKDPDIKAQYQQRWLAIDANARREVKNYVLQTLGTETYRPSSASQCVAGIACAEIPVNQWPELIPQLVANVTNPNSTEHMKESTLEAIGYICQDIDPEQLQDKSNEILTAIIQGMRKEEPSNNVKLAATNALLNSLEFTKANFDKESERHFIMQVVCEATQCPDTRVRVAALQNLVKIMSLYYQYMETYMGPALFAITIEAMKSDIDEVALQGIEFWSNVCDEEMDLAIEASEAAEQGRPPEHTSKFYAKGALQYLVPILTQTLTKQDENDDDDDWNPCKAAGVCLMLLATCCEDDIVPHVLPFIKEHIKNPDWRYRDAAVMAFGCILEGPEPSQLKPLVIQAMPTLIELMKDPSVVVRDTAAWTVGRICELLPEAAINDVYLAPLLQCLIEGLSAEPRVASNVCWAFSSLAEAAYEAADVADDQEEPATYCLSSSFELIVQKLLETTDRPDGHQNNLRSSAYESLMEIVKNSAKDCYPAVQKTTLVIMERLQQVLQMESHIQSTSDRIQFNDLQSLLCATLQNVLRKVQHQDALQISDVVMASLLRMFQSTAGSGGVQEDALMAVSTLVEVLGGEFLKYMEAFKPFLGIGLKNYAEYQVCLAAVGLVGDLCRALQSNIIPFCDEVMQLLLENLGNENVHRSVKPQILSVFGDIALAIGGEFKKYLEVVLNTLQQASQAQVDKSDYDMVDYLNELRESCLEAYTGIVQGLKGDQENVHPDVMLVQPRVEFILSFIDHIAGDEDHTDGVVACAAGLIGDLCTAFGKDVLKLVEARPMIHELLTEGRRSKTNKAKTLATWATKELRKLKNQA
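FRET biosensor Rango (snurportin 1 IBB between N-terminal EYFP and C-terminal Cerulean), 50 nM in PBS/1 mM DTT/0.02% Tween-20/0.1% BSA, preincubated 5 min RT with compound; 0.125 microM importin beta added, 45 min RT, CFP/YFP FRET ratio read.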
GLA inh pH 4.5: inhibitors of human alpha-galactosidase A at pH 4.5; 230,000 tested, under 10 active; AID 1467; P06280; activity change, negative = inhibition, % at 105 µM; purified enzyme, 4-MU-alpha-Gal fluorescence, pH 4.5; inconclusive = small, poorly fitted or top-dose-only inhibition, or a rising curve; inactive = flat fitted curve, though single readings scatter; no compound was filed as active;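 note: 0% = full activity with enzyme and -100% = basal without enzyme; dose as in the result columns while the protocol names 77 µM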
miR-21 reporter: miR-21 reporter, rising signal | HeLa miR-21 FLuc reporter, luciferase, 48 h | Potency, µM (highest dose often 38.3 µM), for inactives: at the highest dose reporter change, positive = more light | 340,000 tested, under 10 active | AID 2288; active = well fitted rising curve with a large enough effect; inconclusive = small, poorly fitted or top-dose-only effect; inactive = no such curve, though single readings can be large or run the other way;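 note: % of control where 0% means no effect; miR-21 action dims this reporter so a rising signal means less miR-21 action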
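Luminescence from a firefly luciferase reporter carrying a miR-21 binding site downstream, stably expressed under a CMV promoter in HeLa cells that make miR-21 endogenously, reports miRNA modulation after 48 h compound exposure up to approximately 40uM final.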
Rango dissoc inh: inhibitors of RanGTP-induced Rango-importin beta complex dissociation; Potency, µM (highest dose often 46.1 µM), without a hit: at the highest dose activity change, negative = inhibition; Biochemical FRET Rango-importin beta, RanGTP-induced dissociation; AID 540253; hit rate 0.071% among 340,000; O95149+P62826; active means falling FRET ratio curve, often poorly fitted, with flat reads before Ran was added; inconclusive means other falling curves, or compound fluorescence or quenching; inactive means flat or rising ratio curve;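 note: potency is the fitted concentration of half-maximal effect; % of control where 0% means no effect; nearly all actives have a fitted effect of over 45% in size; -100% = wells without RanGTP and RCC1; the record marks most hits as doubtful in a second field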
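Quantitative HTS using a FRET biosensor: 0.1 uM Rango, 0.25 uM importin beta, 0.6 uM Ran, 2 mM GTP, 0.2 uM RCC1 final, PBS with DTT, Tween-20 and BSA. Post-read taken 45 min after Ran addition.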
Numbers without * were called inactive; ? = inconclusive; . = not tested or not shown; & = joins results of further samples. Not all compounds are listed; count on the stated rates, not on these rows.

SMILES	Rango complex inh	GLA inh pH 4.5	miR-21 reporter	Rango dissoc inh
CCNC(=S)N(CCc1c(C)[nH]c2ccccc12)Cc1cccnc1	-2.7%	.	-4%	-15%
CC1CCN(S(=O)(=O)c2ccc(C(=O)N3CCCC(C(F)(F)F)C3)cc2)CC1 (configuration not stated)	3.6%	.	.	-11%
COc1ccc(C2(C)CC(C)(C)Nc3ccccc32)cc1 (configuration not stated)	0.7%	.	2%	8%
O=C(CN1CCN(C(=O)c2ccco2)CC1)Nc1cccc(S(=O)(=O)N2CCCC2)c1	4.1%	.	.	-9%
O=C(NS(=O)(=O)Oc1ccc(Cl)cc1)OC[C@@H]1CCCN2CCCC[C@H]12	1.8%	5	-6%	0%
COCCCNC(=O)c1ccc(C(=O)NCCCOC)cc1	0.5%	9	-3%	2%
CSc1ncc(Cl)c(C(=O)Nc2cccc3ccccc23)n1	1.6%	4	-6%	2%
CC(C)c1nc2oc3c(NCCO)ncnc3c2c2c1COC(C)(C)C2	2.4%	1	3%	-7%
COc1ccc(CN2C(=O)N(c3ccc(OC)cc3)C(=O)C2CC(=O)Nc2ccccc2)cc1 (configuration not stated)	0.7%	6	1%	-4%
CC(=O)c1c(C)n([O-])c2cc(C)ccc2[n+]1=O	-0.3%	1	-6%	-9%
CCOCCn1c(CN2CCC(C)CC2)nc2c1c(=O)n(C)c(=O)n2C	.	9	-2%	.
Cc1cccc(C)c1NC(=O)CNC(=O)c1ccc(N2CCCC2=O)cc1	-0.5%	.	.	0%
CCOc1ccc(CCNC(=O)c2cc(-c3ccccc3)c(N3CCOCC3)s2)cc1	-0.6%	.	.	10%
CCCNC(=O)C(Cc1ccccc1C)NC(=O)c1ccc(C#N)cc1 (configuration not stated)	-0.3%	.	.	-6%
CC(C)COP(=O)(c1ccc(N(C)C)cc1)C(O)c1ccc(N(C)C)cc1 (configuration not stated)	1.7%	.	-1%	17%
Cc1ccc(CN2CC(C(=O)Nc3nnc(SCc4c(Cl)cccc4Cl)s3)CC2=O)cc1 (configuration not stated)	?	-5	-12%	-18%
CSCCC(NC(=O)COc1ccccc1)C(=O)N1CC(C)CC(C)C1 (configuration not stated)	5.5%	.	.	20%
COc1ccc(C2N3CC4(C)CN2CC(C)(C3)C4O)cc1OC (configuration not stated)	-3.8%	-16	-3%	9%
CC(C)C(=O)Nc1ccc(C(=O)NNC(=S)NC(=O)c2cccs2)cc1	-2.1%	2	-7%	4%
COC(=O)c1cn(NC(=O)C2CCC(C)CC2)c(=O)c2ccccc12 (configuration not stated)	1.2%	3	-5%	-1%
O=C(c1ccc2nc(Cc3cccc(Cl)c3)oc2c1)N1CCOCC1	0.1%	.	-48%	-2%
O=S(=O)(c1ccccc1)N1c2cc(Cl)ccc2Oc2nc3ccccc3nc21	?	-1	-37%	-26%
O=C(NNC(=O)c1cccs1)c1ccc(Br)o1	-0.9%	-2	-4%	6%
O=C(COc1ccc(Cl)cc1Cl)Nc1nc2n(n1)C(c1ccccc1)CC(=O)N2 (configuration not stated)	0.5%	4	-4%	0%
Cc1cc(C)c(NC(=O)CN2C(=O)NC3(CCCCC3)C2=O)c(C)c1	2.3%	-11	-8%	11%
CC(=O)Cc1nsc(NC(=O)c2ccc(-c3cc(Cl)ccc3Cl)o2)n1	-0.5%	0	-4%	11%
Cc1ccc(S(=O)(=O)N(CC(=O)Nc2cccnc2)c2ccc(Br)cc2)cc1	-4.7%	.	13%	13%
Brc1ccc2ncnc(NCc3ccccc3)c2c1	0.2%	-1	?	5%
Cc1ccc(-n2c(C)cc(-c3csc(N)n3)c2C)cc1	-4.4%	3	-4%	-15%
CCC1(CC)SCCNC1=O	-1.2%	.	.	-7%
Cc1cc(C)cc(NC(=O)c2cc(C)n(Cc3cccs3)c2C)c1	-1.7%	0	-17%	-6%
CCc1nc2sc(C(C)=O)c(N)c2c2c1CCCC2	?	7	0%	?
Oc1[nH]c2ccccc2c1N=Nc1ncnc2c1oc1ccccc12	.	-10	-8%	.
CN(C)S(=O)(=O)c1cccc(NC(=O)CN2C(=O)NC3(CCc4ccccc4C3)C2=O)c1 (configuration not stated)	3.8%	.	8%	15%
Cc1ccc(C)c(OCc2cc(C(=O)N(C)Cc3ccccn3)no2)c1	-2.1%	.	-22%	2%
CCOC(=O)c1ccc(COC(=O)CNC(=O)CNC(=O)Cc2ccccc2)cc1	3.7%	.	0%	18%
Cc1ccc(-n2ncc3c(=O)n(-c4ccc(C)c(C)c4)c(-c4ccco4)nc32)cc1	-2.0%	-1	-3%	-1%
CC(=O)c1ccc(OCCOc2ccc(Cl)c3cccnc23)cc1	-2.4%	4	-15%	19%
O=C1CCNCCN1[C@H](CO)Cc1ccccc1	5.6%	.	-2%	13%
CCCNC(=O)[C@H](C)NC(=O)c1ccc(Br)cc1	-0.1%	8	0%	1%
COC(=O)c1ccc(NC(=O)CCCN2C(=O)NC(C)(C)C2=O)cc1	8.8%	.	.	24%
COc1cc(C(=O)OCC(C)=O)ccc1OCc1c(C)noc1C	-0.3%	8	12%	-7%
O=C(CN1CCN(CC(=O)Nc2ccccc2Cl)CC1)Nc1ccc2c(c1)OCCO2	-0.4%	-5	15%	7%
CCN(C(=O)COC(=O)CNS(=O)(=O)c1ccc(SC)c([N+](=O)[O-])c1)C1CCCCC1	-0.6%	.	.	1%
Cc1cccc(NC(=O)C2CCN(S(=O)(=O)c3cccc4nsnc34)CC2)n1	1.1%	-25	19%	3%
Cc1cccc(C(=O)NCC(=O)OCC(=O)N(C)CC(=O)Nc2ccc(F)cc2)c1	?	.	.	-21%
CC(=O)Oc1c(C(C)C)cc(N(C(C)=O)c2ccccc2)cc1C(C)C	3.2%	.	.	0%
CCOc1ccc(C(C)=O)cc1CN1C(=O)c2ccccc2S1(=O)=O	-0.9%	.	3%	3%
CC1(C)CC(=O)C(C=NCCCN2CCCC2=O)=C(O)C1	-3.4%	-6	0%	-9%
O=Cc1cc(-c2ccccc2)[nH]c1-c1ccccc1	-0.8%	.	-19%	0%

Going on with the list.
SMILES	Rango complex inh	GLA inh pH 4.5	miR-21 reporter	Rango dissoc inh
O=C(CNC(=S)N(CCCN1CCOCC1)Cc1cccs1)N1CCOCC1	4.3%	6	-7%	-11%
Cc1ccccc1S(=O)(=O)N1[C@@H](c2ccc(Cl)cc2)C(C(=O)O)=CC[C@H]1c1ccc(Cl)cc1	0.1%	.	.	19%
COc1cccc(NC(=O)CSc2nc3ccccc3c(=O)n2CCCC(=O)NCCCN2CCOCC2)c1	-2.1%	9	1%	5%
COc1ccc(NC(=O)CCC2COc3ccccc3O2)c(OC)c1 (configuration not stated)	1.1%	?	-11%	4%
Cc1cccc(C(=O)Oc2ccccc2C(=O)N2CCOCC2)c1	1.5%	-11	7%	-1%
Cc1cccc2sc(NC(=O)CN3C(=O)NC4(CCCC4)C3=O)nc12	0.3%	.	1%	8%
Clc1c(Cl)c(Cl)c2n[nH]nc2c1Cl	-0.6%	3	3%	-6%
Cc1ccc(NC(=S)N(CCN(C)C)C(C)c2cccnc2)cc1 (configuration not stated)	-2.4%	6	-1%	4%
CC(CO)(CO)NCc1ccc(-c2ccccc2)cc1	0.0%	-15	-12%	-1%
CS(=O)(=O)N(CCc1ccccc1)CC(=O)Nc1ccccc1	-0.3%	3	-3%	4%
COC(=O)[C@H](C(C)C)N(Cc1ccccc1)S(=O)(=O)CCN1CCCC1	-0.3%	.	.	-2%
COc1cc2cc(CCOC(=O)c3ccc(C(F)(F)F)cc3)oc(=O)c2cc1OC	-1.5%	.	.	5%
COc1ccc(C(CNC(=O)c2cc3c(s2)CCC(C)C3)N2CCCC2)cc1 (configuration not stated)	-0.3%	.	.	-9%
O=C(CSc1ccc(Br)cc1)NC1CCCCCC1	-0.4%	.	.	15%
COc1cccc(CNC(=O)CNC(=O)c2cccs2)c1	-2.9%	.	-3%	-12%
Cc1ncc([N+](=O)[O-])n1Cc1ccccc1	-3.0%	6	2%	6%
CCOC(=O)C(Sc1nnc2c3ccccc3n(CC)c2n1)C(=O)OCC	-0.8%	-18	-1%	-1%
COc1ccccc1-c1cc(C(=O)NCc2ccco2)no1	1.5%	-1	-34%	-1%
CCCc1nnc(NC(=O)CCC(=O)O)s1	4.2%	-11	2%	-2%
COC(=O)Cc1cc(=O)n2[nH]c(C)nc2n1	1.8%	6	-1%	26%
C=CCn1c(C)nnc1SCC(=O)c1c(N)n(C2CC2)c(=O)[nH]c1=O	-5.6%	.	.	3%
CCOC(=O)N1CCN(Cc2nc(N)nc(Nc3ccc(OC)cc3)n2)CC1	-0.5%	1	-10%	-7%
CCc1ccccc1NC(=O)CNC(=O)c1n[nH]c(=O)c2ccccc12	3.1%	.	.	32%
CCc1ccc(-c2nc(CS(=O)CC(=O)NC3CCCCCC3)c(C)o2)cc1 (configuration not stated)	0.6%	.	-2%	8%
CCOC(=O)c1c(NC(=O)CSc2nccc(=O)[nH]2)sc(C)c1C	-0.1%	.	-1%	-9%
O=C(CNc1ccc2c(c1)OCO2)N/N=C\c1cn(Cc2ccccc2)c2ccccc12	0.1%	-4	-3%	-17%
Cc1cccnc1NC(=O)c1ccc(NS(=O)(=O)/C=C/c2ccccc2)cc1	3.0%	.	.	-9%
O=C(Cc1cc(=O)oc2cc(O)ccc12)NC(Cc1ccc(Cl)cc1)C(=O)O (configuration not stated)	?	.	2%	?
COC(=O)C1=C(C)NC2=C(C(=O)CCC2)C1c1ccc(-c2ccsc2C(=O)OC)o1 (configuration not stated)	-2.6%	-8	-9%	-20%
O=C(NCCCCc1ccccc1)C12CN(Cc3ccccc3)CC1C(c1ccc([N+](=O)[O-])cc1)=NO2 (configuration not stated)	-1.4%	-19	4%	-8%
O=Cc1cccc(OC(=O)c2ccc(Cl)cc2Cl)c1	.	-6	-48%	.
Cc1cc(-c2ccccc2)n2nc(C)c(-c3ccccc3)c2n1	-0.8%	-4	-6%	8%
CCNc1nc(NCC)n2c(SCC(=O)Nc3ccc(F)cc3)nnc2n1	3.7%	.	.	0%
NCCCC[C@H]1CNC(=O)C(=O)N1CCc1cccc2ccccc12	-5.1%	-5	-2%	9%
O=C1CCCN1C(=O)COc1cc(F)ccc1[N+](=O)[O-]	-0.9%	.	.	9%
CCOC(=O)C1CCN(S(=O)(=O)c2cccc(-c3cn4cccnc4n3)c2)CC1	-1.0%	12	0%	30%
O=C(NCc1csc(-c2cccs2)n1)c1cccc(Cl)c1	-0.7%	3	-12%	0%
O=C(Nc1nnc(S(=O)(=O)N2CCCC2)s1)c1ccccc1Cl	-1.2%	.	-11%&-7%	-27%

Among those listed so far, these have an NH in an aromatic ring:
SMILES	Rango complex inh	GLA inh pH 4.5	miR-21 reporter	Rango dissoc inh
CCNC(=S)N(CCc1c(C)[nH]c2ccccc12)Cc1cccnc1	-2.7%	.	-4%	-15%
Oc1[nH]c2ccccc2c1N=Nc1ncnc2c1oc1ccccc12	.	-10	-8%	.
O=Cc1cc(-c2ccccc2)[nH]c1-c1ccccc1	-0.8%	.	-19%	0%
Clc1c(Cl)c(Cl)c2n[nH]nc2c1Cl	-0.6%	3	3%	-6%
COC(=O)Cc1cc(=O)n2[nH]c(C)nc2n1	1.8%	6	-1%	26%
C=CCn1c(C)nnc1SCC(=O)c1c(N)n(C2CC2)c(=O)[nH]c1=O	-5.6%	.	.	3%
CCc1ccccc1NC(=O)CNC(=O)c1n[nH]c(=O)c2ccccc12	3.1%	.	.	32%
CCOC(=O)c1c(NC(=O)CSc2nccc(=O)[nH]2)sc(C)c1C	-0.1%	.	-1%	-9%
